Screens: PubChem BioAssay, National Center for Advancing Translational Sciences (NCATS)
Rango complex inh = inhibitors of Rango-importin beta complex formation | actives 0.031% (n = 340,000) | Rango CFP/YFP FRET sensor + importin beta, 45 min | Potency, µM (highest dose often 92.2 µM), without a hit: top-dose inhibition of complex formation; active = rising FRET ratio curve, often small or poorly fitted; inconclusive = mostly compound fluorescence or quenching in the first reads; inactive = flat curves in all reads;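 further: potency means the concentration at half of the fitted maximal effect; 0% = DMSO wells and 100% = buffer wells lacking importin beta; nearly all actives have a fitted effect of over 15% in size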
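FRET biosensor (snurportin 1 IBB flanked by EYFP and cerulean), 50 nM, with compound 5 min, then 0.125 microM importin beta in PBS, 1 mM DTT, 0.02% Tween-20, 0.1% BSA. CFP/YFP ratio read after 45 min at room temperature; pre-read flags interference.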
Rango dissoc inh = inhibitors of RanGTP-induced Rango-importin beta complex dissociation | Biochemical FRET Rango-importin beta, RanGTP-induced dissociation | actives 0.071% (n = 340,000) | Potency, µM (series often up to 46.1 µM), for the others: top-dose activity change, negative = inhibition | O95149+P62826; active means falling FRET ratio curve, often poorly fitted, with flat reads before Ran was added; inconclusive means other falling curves, or compound fluorescence or quenching; inactive means flat or rising ratio curve;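 further: potency means the concentration at half of the fitted maximal effect; % of control where 0% means no effect; nearly all actives have a fitted effect of over 45% in size; -100% = wells without RanGTP and RCC1; the record marks most hits as doubtful in a second field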
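Quantitative HTS using a FRET biosensor: 0.1 uM Rango, 0.25 uM importin beta, 0.6 uM Ran, 2 mM GTP, 0.2 uM RCC1 final, PBS with DTT, Tween-20 and BSA. Post-read taken 45 min after Ran addition.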
GLA inh pH 4.5 = blocks human alpha-galactosidase A at pH 4.5 | AID 1467 | 230,000 tested, under 10 active | activity change, negative = inhibition, % at 105 µM | purified enzyme, 4-MU-alpha-Gal fluorescence, pH 4.5 | P06280; inconclusive = small, poorly fitted or top-dose-only inhibition, or a rising curve; inactive = flat fitted curve, though single readings scatter; no compound was filed as active;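 further: 0% = full activity with enzyme and -100% = basal without enzyme; dose as in the result columns while the protocol names 77 µM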
Target sequence (P06280 whole entry, looked up): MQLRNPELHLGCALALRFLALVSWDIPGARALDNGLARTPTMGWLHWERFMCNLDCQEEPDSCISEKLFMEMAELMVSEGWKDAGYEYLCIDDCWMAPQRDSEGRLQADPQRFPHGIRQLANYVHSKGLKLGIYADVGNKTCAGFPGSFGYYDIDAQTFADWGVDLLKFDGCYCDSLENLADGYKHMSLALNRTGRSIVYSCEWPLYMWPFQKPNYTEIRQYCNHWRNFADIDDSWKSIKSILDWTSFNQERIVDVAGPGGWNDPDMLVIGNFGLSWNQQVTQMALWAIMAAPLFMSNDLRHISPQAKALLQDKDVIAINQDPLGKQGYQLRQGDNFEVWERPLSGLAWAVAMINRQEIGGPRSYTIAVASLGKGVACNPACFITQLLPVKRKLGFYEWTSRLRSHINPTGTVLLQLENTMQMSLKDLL
miR-21 FLuc = miR-21 reporter, rising signal; HeLa miR-21 FLuc reporter, luciferase, 48 h; Potency, µM (series often up to 38.3 µM), for inactives: at the highest dose reporter change, positive = more light; 340,000 tested, under 10 active; active = well fitted rising curve with a large enough effect; inconclusive = small, poorly fitted or top-dose-only effect; inactive = no such curve, though single readings can be large or run the other way;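 further: % of control where 0% means no effect; miR-21 action dims this reporter so a rising signal means less miR-21 action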
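HeLa miR-21-FLuc reporter line, endogenous miR-21; 2000 cells/well in DMEM/10% FBS; compound titration up to ~40uM final, 48 h, 37 degree Celsius; luciferase detection reagent, 15 min lysis, CCD luminescence.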
Active calls of the source: *; ? = inconclusive; nt = not tested or not shown; & = joins results of further samples. The list is partial; the hit share may differ from the screen's.

SMILES	Rango complex inh	Rango dissoc inh	GLA inh pH 4.5	miR-21 FLuc
CC(=O)N1CCCc2cc(S(=O)(=O)N(C)CCC#N)ccc21	-3.5%	-9%	-14	-4%
CN(CC(=O)NNC(=O)Cc1ccccc1F)S(=O)(=O)c1ccc(Cl)cc1	?	-1%	nt	nt
COC(=O)c1c(-c2ccccc2)noc1-c1ccccc1	0.1%	4%	nt	nt
CC(C)CC(=O)N1CCN(Cc2ccccc2Cl)CC1	0.1%	-1%	nt	-6%
O=C(CSc1nncn1-c1cccnc1)Nc1cccc([N+](=O)[O-])c1	0.1%	-2%	nt	10%
CCC(CO)Oc1cc(NC(=O)c2cccc(Cl)c2)c2ncn(C(C)C)c2c1 (stereo unspecified)	5.9%	-8%	nt	nt
CCN(CC)CCNC(=O)c1ccc(NC(=O)c2c(C)nn(-c3ccc(F)cc3)c2Cl)cc1	-3.2%	-2%	nt	-8%
COC(=O)[C@@H]1C[C@@]2(O)[C@H](O)[C@H](O)[C@H](O)C[C@H]2N1Cc1ccc(C(F)(F)F)cc1	-0.1%	-15%	11&6	1%
CCOc1ccc(/C=N/NC(=O)c2ccccc2O)cc1CN1CC2CC(C1)c1cccc(=O)n1C2 (stereo unspecified)	-2.0%	-7%	nt	nt
Cc1ccc2oc(=O)c3cnn(CC(=O)N4CCN(c5ccccn5)CC4)c3c2c1	-1.7%	8%	1	0%
COC(=O)c1cccc(NC(=S)NCCC2=CCCCC2)c1	3.0%	-13%	-6	19%
CCOc1ccc(/C(O)=C2/C(=O)C(=O)N(Cc3cccnc3)C2c2ccc(N(C)C)cc2)c(C)c1 (stereo unspecified)	1.8%	-20%	1	1%
CN(C)/C=C/C=C1C(=O)CCCC1=O	1.6%	-4%	-8	-3%
COCc1cc(=O)[nH]c(Sc2c(-c3ccccc3)c3ccc(Cl)cc3[nH]c2=O)n1	-0.8%	33%	-1	-3%
Cc1ccc(CNC(=O)C2CCCN2S(=O)(=O)c2ccc(Cl)cc2)cc1 (stereo unspecified)	1.0%	-7%	nt	-5%
Cc1cccnc1NC(=S)NCCc1ccccc1	4.0%	-2%	-7	-50%
COc1cc(/C=C2/C(=N)N3C(SC)=NSC3=NC2=O)ccc1OC(=O)c1ccco1	?	?	nt	-27%
Cc1ccc(C)c2sc(NC(=O)c3ccc(N4C(=O)CCC4=O)cc3)nc12	2.6%	4%	1	0%
COC(CNC(=O)CNC(=S)N(Cc1ccccc1)Cc1cccs1)OC	1.0%	-1%	4	3%
O=C(Nc1ccc2c(c1)oc1ccccc12)c1ccncc1	3.9%	1%	-22	-34%
Cc1ccc(NC(=O)C2COc3ccccc3O2)cc1C (stereo unspecified)	1.6%	-5%	nt	-58%
N=C1S/C(=C\c2cn[nH]c2-c2ccc(F)cc2)C(=O)N1c1ccccc1F	0.5%	2%	13	-43%
CCN(CC)S(=O)(=O)c1ccc(OC)c(NC(=O)c2cn(CC)c3nc(C)ccc3c2=O)c1	1.9%	-8%	4	-3%
COC(=O)Cc1ccc(NC(=O)c2ccccc2Cl)cc1	0.3%	-2%	-13	15%
CC(C)Sc1nc2c(cnn2-c2ccccc2)c(=O)[nH]1	1.1%	-4%	5	-14%

The results go on.
SMILES	Rango complex inh	Rango dissoc inh	GLA inh pH 4.5	miR-21 FLuc
O=C1CC2(CCCCC2)Oc2ccc(O)cc21	-1.4%	0%	-12	-15%
O=C1CNC(=S)N1c1nc2ccccc2s1	5.2%	-2%	0	-44%
O=C(COC(=O)c1cccc(S(=O)(=O)N2CCCCCC2)c1)Nc1ccccc1C(F)(F)F	1.3%	-3%	nt	nt
Cc1ccc(OC(=O)c2ccc(C)c([N+](=O)[O-])c2)cn1	-0.2%	16%	3	0%
COC(=O)C1=C(C)N(Cc2ccccc2)C(=NCc2ccccc2)N[C@H]1c1cccc(F)c1	1.6%	1%	nt	?
COC(C[C@@H]1O[C@@H]1[C@H](O)[C@@H](C)OCc1ccccc1)OC	-1.6%	7%	nt	2%
CN(C(=O)c1cccc(OC2CCN(S(=O)(=O)N(C)C)CC2)c1)C1CCOC1 (stereo unspecified)	-2.8%	-6%	nt	-17%
Cn1ccnc1C(=O)Cc1ccc([N+](=O)[O-])cc1	1.4%	-11%	nt	nt
Cc1nn(C)cc1/C=N/NC(=O)CSc1ccccn1	3.1%	-4%	2	0%
CCN(CC)CCN1C(=O)C(=O)/C(=C(/O)c2ccc(S(=O)(=O)N3CCOCC3)cc2)C1c1ccc(C)cc1 (stereo unspecified)	-0.8%	12%	nt	0%
O=C(c1cccc([N+](=O)[O-])c1)c1ccc2c(c1)C(=O)NC2=O	0.1%	?	-1	-2%
CCCc1nc(-c2cc3ccccc3[nH]c2=O)no1	5.2%	27%	4	-28%
CCOc1ccc(N(C(=O)CNC(=O)c2ccco2)C(C(=O)NCC2CCCO2)c2ccccc2)cc1 (stereo unspecified)	1.0%	0%	nt	2%
CN(C)c1ccc(C2C3C(=O)NC(=O)C3ON2c2ccc(Cl)cc2)cc1 (stereo unspecified)	-6.7%	-16%	-1	-14%
Cc1onc(-c2ccccc2)c1C(=O)NC(C)CCc1ccccc1 (stereo unspecified)	-0.3%	-2%	nt	-2%
O=C(NCCCc1ccccc1)c1cncc(Br)c1	0.5%	-11%	nt	-26%
Cc1ccc(S(=O)(=O)NCc2cccnc2)s1	2.9%	-5%	1	6%
COc1ccc(-c2csc(C)n2)cc1OC	-5.0%	12%	-4	-25%
Cc1ccccc1NC(=O)NCC1CCN(c2ccc(S(=O)(=O)N3CCOCC3)cc2)CC1	-4.5%	28%	nt	9%
CCO[C@H]1OC(C(=O)O)=C[C@@H](c2ccccc2)[C@@H]1CCCO	-2.9%	-1%	nt	nt
O=C(Nc1ccc(F)cc1)C1CCCN(c2cnccn2)C1 (stereo unspecified)	1.1%	5%	nt	-11%
CCC(c1nnc(SCC(=O)Nc2ccc(C(=O)N(C)C)cc2)n1Cc1ccccc1)N(C)C (stereo unspecified)	0.2%	2%	nt	-1%
CC12CCC(C(=O)N3CCCCC3)([C@H](Br)C1=O)C2(C)C (stereo partly specified)	-5.2%	4%	5	1%
CN(CC(=O)N1CCN(c2ccc(F)cc2)CC1)S(=O)(=O)c1ccc2c(c1)c(=O)n(C)c(=O)n2C	1.6%	8%	-1	0%
Cc1cccc(NC(=O)[C@H](Cc2c[nH]c3ccccc23)NC(=O)[C@@H]2Cc3ccccc3CN2)c1	?	-16%	nt	15%

(more compounds)
SMILES	Rango complex inh	Rango dissoc inh	GLA inh pH 4.5	miR-21 FLuc
Cc1c(C(=O)N(Cc2ccccc2)C2CCS(=O)(=O)C2)oc2ccccc12 (stereo unspecified)	2.3%	30%	nt	-4%
COC(=O)c1ccccc1C(=O)c1cccc2ccccc12	-3.9%	9%	nt	16%
C#CCOCCOCCOCCNc1nc(N2CCN(C(=O)C(Cc3ccc(O)cc3)n3cc(C(N)CC(C)C)nn3)CC2)nc(N2CCN(C(=O)C(Cc3cc4ccccc4[nH]3)n3cc(C(N)Cc4ccc(O)cc4)nn3)CC2)n1 (stereo unspecified)	nt	nt	-3	0%
O=S(=O)(O)c1nc2ccccc2n1Cc1cccc2ccccc12	nt	nt	1	-8%
COc1ccc(Cc2nnc(NC(=O)CSc3ccccc3)s2)cc1OC	4.9%	11%	14	3%
COCCNC(=O)c1ccc(CS(=O)(=O)c2ccc(C)cc2)o1	-1.6%	-10%	-18	3%
Cc1cc(-n2nc(C)cc2C)n2ncc(-c3ccccc3)c2n1	?	-11%	-2	-26%
Cc1ccc(NC(=O)CCS(=O)(=O)c2ccc3nc(C)sc3c2)cc1	-5.2%	-9%	nt	0%&-1%
COc1cc2c(cc1OC)C(c1cccs1)N(C(=O)C(C)C)CC2 (stereo unspecified)	3.1%	1%	-4	1%
CCOc1cc(-c2c(C#N)c(N)nc3c2CCc2ccccc2-3)ccc1O	0.0%	17%	-7	18%
Cc1c(/C(O)=C2\C(=O)C(=O)N(CCN(C)C)C2c2ccco2)cnn1-c1ccccc1 (stereo unspecified)	-0.1%	-7%	5	-55%
N#Cc1c(NC(=O)C2CC(c3ccccc3O)=NO2)sc2c1CCC2 (stereo unspecified)	?	-9%	-4	-8%
Cc1ccc(-n2nc(C)c3c(C)c(CCC(=O)NC(C)c4ccccc4)c(C)nc32)cc1 (stereo unspecified)	0.2%	13%	-1	0%&2%
Cc1ccc(-c2nc3ccccc3[nH]2)cc1N	1.0%	14%	6	-12%
Cc1cccc(CSc2nc3c(cc2C#N)CCC3)c1	-3.6%	-5%	2	-7%
CCOC(=O)C1CCCN(C(=O)/C=C/c2cccc([N+](=O)[O-])c2)C1 (stereo unspecified)	?	8%	8	-9%
COc1ccc(CCN(C)C(=O)C2CCN(Cc3cccc(OC)c3OC)CC2)cc1OC	-4.4%	0%	1	0%
Cn1ccnc1SCc1ccc(Cl)cc1Cl	-0.1%	8%	nt	-6%
Cc1cc(C(=O)Nn2c(-c3ccc(Br)cc3)nc3ccccc3c2=O)ccc1[N+](=O)[O-]	2.6%	-3%	3	1%
CCNC(=S)Nc1cccc(Cl)c1C	-0.5%	0%	6	-2%
CCN(CC)CC1C(=O)N(c2ccc(OC)cc2)C1c1ccccc1 (stereo unspecified)	2.5%	16%	nt	0%
O=C(CN1C(=O)c2ccccc2S1(=O)=O)NCc1c(F)cccc1F	3.7%	29%	nt	nt
Cc1ccc(CNC(=O)c2cnccn2)cc1	-0.2%	-11%	-2	-2%
COc1ccc2[nH]c(=O)c(CN(Cc3cccs3)C(=S)NCC3CCCO3)cc2c1 (stereo unspecified)	-1.6%	35%	0	1%
Cc1ccnc(NC(=O)CCCc2ccccc2)c1	0.3%	8%	20	-50%

By substructure, the entries above with a cyano group
SMILES	Rango complex inh	Rango dissoc inh	GLA inh pH 4.5	miR-21 FLuc
CC(=O)N1CCCc2cc(S(=O)(=O)N(C)CCC#N)ccc21	-3.5%	-9%	-14	-4%
CCOc1cc(-c2c(C#N)c(N)nc3c2CCc2ccccc2-3)ccc1O	0.0%	17%	-7	18%
N#Cc1c(NC(=O)C2CC(c3ccccc3O)=NO2)sc2c1CCC2 (stereo unspecified)	?	-9%	-4	-8%
Cc1cccc(CSc2nc3c(cc2C#N)CCC3)c1	-3.6%	-5%	2	-7%

Later entries.
SMILES	Rango complex inh	Rango dissoc inh	GLA inh pH 4.5	miR-21 FLuc
Cc1ccc(C(=O)NCCCNC(=O)Cc2ccc(Cl)cc2)cn1	-4.2%	-1%	nt	nt
CCOc1ccccc1NC(=O)CN1C(=O)COc2ccc(C)cc21	0.2%	-8%	nt	-9%
COC(=O)c1ccccc1NC(=O)NCCc1ccc(OC)c(OC)c1	-0.8%	4%	2	-16%
CCC(=O)Nc1c(C)nn(-c2ccc(C)c(C)c2)c1C	0.1%	-1%	0	-43%
CCCC(c1nnnn1Cc1ccccc1)N1CCC(C(N)=O)CC1 (stereo unspecified)	-1.5%	1%	-5	-2%
CCC(C)NC(=O)C1CCCCN1S(=O)(=O)c1ccc(F)cc1 (stereo unspecified)	-0.1%	-5%	8	-2%
Clc1cccc(CN2C3=NCCCN3c3ccccc32)c1	-0.5%	-17%	nt	12%
CCOC(=O)c1cc2ccccc2nc1C	-0.3%	-7%	-5	-7%
O=C(OCC(=O)c1ccc[nH]1)C1=COCCO1	?	-11%	nt	nt
CN1/C(=C\C=C(/C#N)C(=O)Nc2ccc(Cl)cc2)C(C)(C)c2ccccc21	?	?	-1	-6%

A different layout for 2 compounds above.
Below each compound – Rango complex inh | Rango dissoc inh | GLA inh pH 4.5 | miR-21 FLuc
COCCNC(=O)c1ccc(CS(=O)(=O)c2ccc(C)cc2)o1
    -1.6% | -10% | -18 | 3%
Cc1cc(-n2nc(C)cc2C)n2ncc(-c3ccccc3)c2n1
    ? | -11% | -2 | -26%

A draw from above in order of count of non-hydrogen atoms, ascending:
SMILES	Rango complex inh	Rango dissoc inh	GLA inh pH 4.5	miR-21 FLuc
CCOC(=O)c1cc2ccccc2nc1C	-0.3%	-7%	-5	-7%
Cc1ccc(C(=O)NCCCNC(=O)Cc2ccc(Cl)cc2)cn1	-4.2%	-1%	nt	nt
COC(=O)c1ccccc1NC(=O)NCCc1ccc(OC)c(OC)c1	-0.8%	4%	2	-16%
